Bioassay records (PubChem BioAssay)
UCH37 inh: human UCH37 deubiquitinating enzyme inhibition; Q9Y5K5; inhibition, % (concentration not given with the values); 330,000 compounds, 0.33% hits; purified proteasome/UCH37, Ub-AMC cleavage fluorescence;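 active = mean of two replicates above 20%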;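 also: 0% = compound-free wells with enzyme and 100% = wells lacking proteasome; stock transfer was 100 nL into about 20 µL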
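Material: Human UCH37 enzyme supplied as purified proteasome complex | Schedule: 30 min compound-proteasome preincubation then 25 min substrate reaction, room temperature | Detection: AMC fluorescence from Ub-AMC cleavage, excitation 355 nm, emission 460 nm | Benchmarks: Wells without proteasome as full block, compound-free enzyme plus substrate as uninhibited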
FGF22 binding: shifts melting point of recombinant human FGF22. 340,000 compounds, 1.5% hits. calls only at 9.99 µM. Q9HCT0. recombinant FGF22 thermal shift, SYPRO orange fluorescence; percent of sucrose octasulfate shift, DMSO zero;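 active = melting point raised past a set limit in the mean and every replicate; three in four hits are not shown here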
ALR inh: human ALR oxidase inhibition via reduced H2O2; P55789; purified ALR, DTT oxidation, H2O2 HRP-luminol luminescence; inhibition, % (no concentration beside the values); 290,000 compounds, 3.8% hits;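 active = mean and each replicate at 75% or more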;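 also: stock transfer was 7.5 nL into about 7.5 µL; 0% = neutral wells and 100% = wells with inactivated enzyme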
Ecoli growth: inhibitors of Escherichia coli growth | OD600, 23 h; active compounds read low | OD600 absorbance (test concentration not listed) | 330,000 compounds, 0.21% hits | AID 1053175;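 active = OD600 absorbance below the run mean of sample wells minus 3.6 SD, in any replicate, cut at about 0.56 in these data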;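 also: stock transfer was 300 nL into about 60 µL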
Beta2AR agonist: agonists of human beta-2 adrenergic receptor inducing internalization; response, % (no concentration beside the values); Am2.2-beta2AR cells, FAP receptor internalization, flow cytometry; reference of the scale not given here; 340,000 compounds, 0.43% hits;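 active = response above a set limit, near 3 SD of response in nonfluorescent compounds, cut at about 42% in these data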;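 also: stock transfer was 100 nL into about 11 µL; a reference agonist was the positive control; negative values mostly stem from fluorescent compounds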
LANA-H2A inh: blocks KSHV LANA binding to histone H2A/H2B; inhibition, % (concentration not given with the values); AID 2629; Q9QR71; 320,000 compounds, 0.6% hits; cell-free LANA-H2A/H2B peptide, fluorescence polarization; in the data active = inhibition mostly above about 10%, no sharp cut-off; inactive = mostly below about 6.7%;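 also: stock transfer was 7.5 nL into about 10 µL; 0% = median of vehicle wells and 100% = median of positive control wells; one replicate is shown; the record names a cut of 25% in any replicate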
Target sequence (Q9QR71 whole entry, looked up): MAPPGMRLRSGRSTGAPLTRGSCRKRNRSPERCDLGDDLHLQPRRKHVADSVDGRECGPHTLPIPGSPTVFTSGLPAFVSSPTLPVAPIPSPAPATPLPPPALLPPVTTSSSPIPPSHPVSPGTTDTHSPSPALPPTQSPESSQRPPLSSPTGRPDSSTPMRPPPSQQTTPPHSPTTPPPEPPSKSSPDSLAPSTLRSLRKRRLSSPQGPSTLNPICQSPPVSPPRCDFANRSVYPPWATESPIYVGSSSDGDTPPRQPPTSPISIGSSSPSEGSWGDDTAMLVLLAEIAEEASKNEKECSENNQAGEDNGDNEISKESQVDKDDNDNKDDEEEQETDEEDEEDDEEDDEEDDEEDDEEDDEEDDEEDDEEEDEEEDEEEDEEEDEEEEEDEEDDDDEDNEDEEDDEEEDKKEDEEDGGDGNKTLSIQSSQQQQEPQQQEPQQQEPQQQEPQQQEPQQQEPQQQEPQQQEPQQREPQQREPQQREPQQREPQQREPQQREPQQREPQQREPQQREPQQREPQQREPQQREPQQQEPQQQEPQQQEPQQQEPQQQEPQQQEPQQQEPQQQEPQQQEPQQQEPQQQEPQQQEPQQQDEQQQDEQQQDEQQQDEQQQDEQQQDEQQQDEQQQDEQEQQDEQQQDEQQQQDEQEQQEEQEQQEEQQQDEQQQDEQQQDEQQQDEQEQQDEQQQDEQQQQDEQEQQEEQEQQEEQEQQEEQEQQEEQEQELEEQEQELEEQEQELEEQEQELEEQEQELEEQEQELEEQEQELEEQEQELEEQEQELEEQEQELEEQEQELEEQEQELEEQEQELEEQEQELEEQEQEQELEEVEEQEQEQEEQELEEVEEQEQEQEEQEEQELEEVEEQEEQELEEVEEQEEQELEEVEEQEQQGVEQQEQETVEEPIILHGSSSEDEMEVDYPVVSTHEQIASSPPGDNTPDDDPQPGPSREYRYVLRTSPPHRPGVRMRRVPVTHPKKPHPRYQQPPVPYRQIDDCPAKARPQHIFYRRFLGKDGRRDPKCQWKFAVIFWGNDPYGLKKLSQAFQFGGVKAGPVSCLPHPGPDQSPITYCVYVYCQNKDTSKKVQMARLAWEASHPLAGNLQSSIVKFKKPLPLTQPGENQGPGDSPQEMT
HNF4A DNA FP: change in binding of human HNF4 alpha to DNA; P41235; HNF4a-FITC DNA binding, fluorescence polarization, 1 h; activity change, % at 10 µM; 360,000 compounds, 0.3% hits; in the data active = activity change above about 30%, passing the limit was not always enough;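 also: controls were the assay level and a saturating level of protein; the project sought stronger binding though the title names inhibitors; some compounds called inactive have numbers as strong as hits; positive values seem to mean higher polarization but the record does not say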
* hit, by the source's call; i = inactive; / = not tested or not shown; + = active, no number.

Ecoli growth,LANA-H2A inh,FGF22 binding,SMILES,ALR inh,Beta2AR agonist,HNF4A DNA FP,UCH37 inh
0.71,-0.8,i,COc1ccc(C(C)(C)C)cc1NC(=O)c1ccccc1-n1cnnn1,12,-5,-1.6,4.2
0.65,2.7,i,CCc1cc(-c2n[nH]c(=S)n2CC(C)C)cs1,95*,-10,-0.2,2.8
0.72,i,+,CCOC(=O)C1CCC(CNCc2ccccc2C)CC1 (centres undefined),-8,5,7.6,1.4
0.69,2.4,i,CCn1c(SCC(=O)OC)nnc1-c1ccccc1,-25,6,-1.9,-1.1
0.7,-0.3,/,COc1ccc(C)cc1NC(=O)c1ccc(N(C)S(C)(=O)=O)cc1,-6,6,-0.3,3.3
0.62,0.3,i,CC(NC(=O)CN1C(=O)c2ccccc2C1=O)c1ccccc1 (centres undefined),0,-5,-3.7,0.2
0.63,-0.7,i,c1cncc(-c2nnc(-c3ccco3)o2)c1,2,-7,-3.2,-25
0.67,2.3,i,CCN(CC)CCC(c1cc(OC)c(OC)c(OC)c1)c1c(OC)cc(OC)c2c(C)cc(=O)oc12 (centres undefined),/,-13,0.8,-1.4
0.65,5.8,i,NC(=O)c1ccc(NC(=O)COC(=O)CC23CC4CC(CC(Br)(C4)C2)C3)cc1,/,3,0.7,1.1
0.7,2.1,i,Cn1ccnc1C(O)(c1ccccc1)c1nccn1C,-2,-3,0.4,-0.6
0.68,-2.9,/,Cc1cc(-c2csc(N)n2)c(C)n1-c1ccccc1,-3,4,5.2,1.9
0.76,4.2,/,COc1ccc(-c2nnc(SCC(=O)Oc3ccc(C)cc3)o2)cc1,1,-10,3.0,2.0
0.75,3.6,/,CSc1nnc(-c2cccc(C)c2)n1N,/,-6,-2.1,4.7
0.65,-4.4,/,Nc1n[nH]c2c1C1(CCCC1)Cc1ccccc1-2,0,0,-2.0,-0.2
0.67,4.8,i,O=C(O)CCCC(=O)Nc1ccc(S(=O)(=O)Nc2nccs2)cc1,-4,-2,0.7,1.5
/,-5.4,i,COc1cc(/C=N/NC(=S)Nc2cccc(C(=O)O)c2)ccc1O,99*,-4,-3.6,/
0.74,2.6,/,O=C(c1ccc2c(=O)n(Cc3ccco3)c(=S)[nH]c2c1)N1CCN(Cc2ccccc2)CC1,5,4,-7.1,1.2
0.69,-0.9,i,O=C(c1ccc(S(=O)(=O)Nc2ccccc2Cl)cc1)N1CCOCC1,1,0,0.0,0.1
0.67,9.3,i,CC1C(Br)C(=O)NC(=O)N1Cc1ccccc1 (centres undefined),/,9,1.7,0.2
0.63,/,i,C=CCn1c(SCC(=O)N(CCOC)c2c(N)n(CCCC)c(=O)[nH]c2=O)nnc1-c1ccc(Cl)cc1,/,-3,-0.7,0.3
0.7,1.4,/,O=C(CNS(=O)(=O)c1ccc(Br)s1)N1CCCC1,/,-4,-2.1,-1.9
0.66,/,i,CCOc1ccc(N=Cc2ccccc2O)cc1,/,0,3.5,1.9
0.81,1.1,i,COc1ccc(OC)c(C2CC(=O)N3CN(c4ccc(C)c(Cl)c4)CSC3=C2C#N)c1 (centres undefined),2,-8,-0.8,4.1
0.67,-0.2,i,COc1ccc(CN2C(=O)c3ccccc3C2=O)cc1,/,2,0.9,2.2
/,0.3,i,O=C(NCc1nc2ccccc2[nH]1)C1=C[C@H](c2ccc(C(F)(F)F)cc2)C[C@H](OCCCCO)O1,-15,0,1.3,1.8
0.64,4.4,/,C=CCc1cc(C=O)cc(OC)c1OCc1ccc(C(=O)O)cc1,-12,0,-0.2,-0.3
0.7,2.1,i,Cc1c(Cl)cccc1NC(=O)NCc1ccccn1,-11,1,-0.2,4.0
0.71,2.3,i,O=C(NCCCN1CCOCC1)C(=O)NCc1ccco1,-4,25,-1.2,1.9
0.72,-2.3,/,Cc1nn(CC(=O)N2CCN(Cc3ccccc3)CC2)c(=O)c2ccccc12,-8,3,1.2,0.4
0.71,-1.2,i,NC(=O)c1ccc(NC(=O)CCN=C2NS(=O)(=O)c3ccccc32)cc1,0,-7,2.0,3.6
0.69,0.7,/,COc1ccc(/C=C2\N=C(C)N(c3ccc(C(=O)O)cc3)C2=O)cc1OC,-13,1,-1.3,11
0.69,-3.0,i,CC(C)[C@H](NC(=O)c1ccccc1Cl)C(=O)OCC(=O)N1CCCCC1,-1,7,1.4,-0.3
0.75,-3.9,/,CCOC(=O)c1[nH]c(C)c(C(=O)Nc2ccc(C)c(Cl)c2)c1C,0,-13,4.3,-2.3
0.7,-0.3,i,COc1ccc(/C=C(\NC(=O)c2ccc(C)cc2)C(=O)Nc2ccc(C(=O)O)cc2)cc1,10,4,-4.7,9.1
0.69,2.3,/,CN1CC(=O)N/C1=N\C(=O)Nc1ccc2c(c1)N(C)C(=O)CS2,0,-55,-0.4,5.4
0.65,-2.6,i,CC(C)CNC(=O)COC(=O)c1ccc2c(c1)C(=O)N(Cc1ccco1)C2=O,4,-6,2.3,1.1
0.73,2.6,i,CCc1cc(C(=O)N2CCCc3ccccc32)sc1C,-1,1,-1.0,1.9
0.7,2.4,i,O=C(CSC1=NS(=O)(=O)c2cc(F)ccc2N1)NCc1ccccc1Cl,4,0,-0.1,0.0
0.65,3.8,i,COc1ccc(Cl)cc1NC(=O)CSc1nc(NS(=O)(=O)c2ccc(C)cc2)cc(=O)[nH]1,-7,-2,1.8,5.1
0.66,-1.6,i,COc1ccc(-c2noc(CCC(=O)NCCc3ccccc3)n2)cc1,-1,-7,1.0,0.0
0.63,0.1,i,COc1cccc(NC(=O)Cn2c(=O)n(CCC(=O)NCc3ccco3)c(=O)c3ccccc32)c1,0,13,2.6,-0.4
0.71,-3.3,i,CN(C)c1ccc(P(=O)(OCc2ccccc2)C(O)c2ccc(Cl)cc2)cc1 (centres undefined),/,-7,-1.7,-0.3
/,-0.4,i,Cc1cccc2nc(CSc3nc4[nH]ncc4c(=O)n3-c3ccccc3Cl)cc(=O)n12,-4,-3,4.9,2.6
0.81,1.7,/,Cc1ccc(C)c(-c2cc(C(=O)Nc3sc(C)c(C)c3C(N)=O)c3ccccc3n2)c1,-4,9,-0.2,1.3
0.67,1.8,i,CC(NC(=O)NC(N)=O)(C(F)(F)F)C(F)(F)F,0,6,7.0,-0.2
0.72,-4.4,/,O=C(NCc1ccco1)Oc1ccccc1,40,5,1.4,4.2
0.68,0.7,i,CCN(Cc1ccncc1)Cc1ccc(OC)c(OC)c1,-1,-1,6.1,4.5
0.67,14,i,CN1C(=O)CC(Sc2ccccc2C(=O)O)C1=O (centres undefined),-3,3,-0.1,-0.4
0.65,/,i,O=C(Cn1cnc([N+](=O)[O-])c1)Nc1ccc(F)c(Cl)c1,/,2,6.0,2.7
0.73,-1.5,i,Nc1nc(SCc2ccc(Cl)cc2Cl)nc2nc3c(cc12)CCCC3,90*,-20,21,-13
0.73,0.3,/,Cc1ccc(-c2cc(C(F)F)n3ncc(C(=O)N4CCN(c5cccc(C)c5C)CC4)c3n2)cc1,-2,-7,-6.1,-3.6
0.7,-3.0,i,CC(=O)c1sc(NC(=O)c2ccc3c(c2)OCO3)nc1C,-6,-3,-4.8,-0.6
0.71,/,i,CN(Cc1ccccc1)C(=O)c1cccc(NC(=O)Cc2ccc(NC(=O)C3CCN(C(=O)C4CC4)CC3)cc2)c1,/,-12,1.3,0.8
0.68,-6.7,i,Nc1ccc(-c2nc3cc([N+](=O)[O-])ccc3o2)cc1,-6,-4,-3.7,-1.3
0.73,5.3,/,CCC1(C)Cc2c(sc3c2c2ncnn2c2nnc(SCC(=O)NCc4ccco4)n32)CO1 (centres undefined),-1,3,0.1,0.2
/,/,i,COCCN1CCC(CO)C1 (centres undefined),/,-7,-1.9,/
0.71,5.0,i,C=CCC1(NC(C)c2ccccc2)CCCCC1 (centres undefined),0,11,1.5,5.3
0.7,-1.4,/,CC(C)(C)c1ccc(S(=O)(=O)N2CCSC2)cc1,-6,3,0.5,-0.2
0.69,-4.4,i,c1ccc(-n2cnc3ccccc32)cc1,-18,-10,-0.2,0.9
0.7,-2.4,/,Cc1ccc(-c2csc3nc4ccc(C(=O)NCCO)cc4c(=O)n23)cc1,28,-6,3.5,-31

(next part)
Ecoli growth,LANA-H2A inh,FGF22 binding,SMILES,ALR inh,Beta2AR agonist,HNF4A DNA FP,UCH37 inh
0.67,3.8,/,CCOC(=O)N1CCN(c2ncnc3c2[nH]c2ccc(F)cc23)CC1,-2,-8,4.9,-17
0.71,-0.5,/,O=C1CN(c2ccccc2F)C(=O)CN1c1ccccc1F,/,-7,-0.3,1.9
0.7,/,/,CCc1ccccc1NC(=O)CSc1nc2ccccc2n1CC(=O)N(C)C,/,5,-3.9,0.7
0.74,11,/,Cc1nn(C)cc1NC(=O)CCSc1nc(-c2ccco2)cc(C(F)(F)F)n1,-2,-4,-0.8,2.1
0.67,2.4,i,COC(=O)c1sc(N2CCCCC2)c(C#N)c1N,7,-11,2.3,7.2
0.64,0.8,i,C=CCNc1nc(Nc2ccc(Cl)cc2)nc(OC)n1,-1,-6,1.5,0.8
0.68,-2.3,/,CCOC(=O)c1cccnc1SCC(=O)NCc1ccccc1,-1,-5,-0.6,4.6
0.64,-1.5,i,COc1ccc(C(=O)NCCN2CCOCC2)cc1[N+](=O)[O-],/,-3,0.8,5.5
0.7,-8.0,/,CCOC(=O)C1CCCN(Cc2ccccc2F)C1 (centres undefined),/,0,5.9,0.7
0.71,-1.6,i,S=c1nc(Cc2ccc(Cl)cc2)[nH]c2ccccc12,-16,-4,-1.0,2.5
0.7,-0.8,/,CCn1c(SCC(=O)NC(=O)Nc2ccc3c(c2)OCCO3)nnc1-c1cccs1,/,-18,4.2,5.4
0.69,3.1,i,CC(=O)c1cc(-c2ccc(F)cc2)n(CCC(=O)Nc2cccc(C)n2)c1C,-20,-1,1.9,1.4
0.71,-2.9,i,Cc1ccc(S(=O)(=O)N(C)c2ccc(OC(=O)c3ccc(=O)[nH]c3)cc2)cc1,9,8,1.0,0.9
/,0.6,i,C/C(=N\NC(=S)NC(C)C)c1ccc(Cl)c([N+](=O)[O-])c1,/,-1,-3.6,/
0.68,8.5,i,CCn1nc(C)cc1C(=O)n1nc(C)c(Sc2ncccn2)c1C,4,0,0.8,4.7
0.64,-1.6,/,N#Cc1ccccc1S(=O)(=O)N1CCN(c2ccc(S(=O)(=O)N3CCOCC3)cn2)CC1,/,7,2.8,1.4
0.67,1.8,i,Cc1ncsc1C(=O)Nc1nc2c(s1)CCCC2,68,-1,0.0,8.7
0.71,2.5,/,O=C(NC1CCCCCC1)c1ccc(S(=O)(=O)NCc2ccco2)cc1,-2,11,0.8,0.5
0.76,1.5,/,CCc1ccccc1N1C(=O)C2CC(C)=C(C)CC2C1=O (centres undefined),-1,1,-1.7,-0.5
0.73,16,i,CCCCC1=NN(C(=O)c2ccncc2)C(O)(C(F)(F)F)C1 (centres undefined),0,1,1.9,1.9
0.68,-7.9,i,O=[N+]([O-])c1cccc(-c2ccc(SCc3ccccn3)nn2)c1,-6,-5,2.0,4.4
0.66,2.1,i,Cc1ccc(N(CC(=O)NC2CCCC2)C(=O)CNC(=O)c2cccs2)cc1F,-3,6,3.3,0.9
0.72,1.2,i,COc1ccc(NC(=S)N2CCc3ccccc32)cc1OC,37,-4,-1.4,7.6
0.71,2.6,/,O=C(Cc1ccc(-c2ccccc2)cc1)N1CCOCC1,-3,2,2.9,4.9

By substructure, those above with a tert-butyl group.
Ecoli growth,LANA-H2A inh,FGF22 binding,SMILES,ALR inh,Beta2AR agonist,HNF4A DNA FP,UCH37 inh
0.71,-0.8,i,COc1ccc(C(C)(C)C)cc1NC(=O)c1ccccc1-n1cnnn1,12,-5,-1.6,4.2
0.7,-1.4,/,CC(C)(C)c1ccc(S(=O)(=O)N2CCSC2)cc1,-6,3,0.5,-0.2

Only part of the results is shown. The share of hits here may be higher or lower than overall.
